# VDR inhibitor: inhibitors of human vitamin D receptor; P11473; VDR-SRC2-3 peptide fluorescence polarization, 2 h; 400,000 tested, 0.93% active; Potency, µM, inactives show max response, negative = inhibition, actives largely listed as inhibitors; active = well fitted inhibition curve with a large enough effect; inconclusive = small, poorly fitted or top-dose-only effect, or another doubt; inactive = no such curve, though single readings can be large or run the other way; note: series mostly up to about 120 µM
# Target sequence (P11473 whole entry, looked up): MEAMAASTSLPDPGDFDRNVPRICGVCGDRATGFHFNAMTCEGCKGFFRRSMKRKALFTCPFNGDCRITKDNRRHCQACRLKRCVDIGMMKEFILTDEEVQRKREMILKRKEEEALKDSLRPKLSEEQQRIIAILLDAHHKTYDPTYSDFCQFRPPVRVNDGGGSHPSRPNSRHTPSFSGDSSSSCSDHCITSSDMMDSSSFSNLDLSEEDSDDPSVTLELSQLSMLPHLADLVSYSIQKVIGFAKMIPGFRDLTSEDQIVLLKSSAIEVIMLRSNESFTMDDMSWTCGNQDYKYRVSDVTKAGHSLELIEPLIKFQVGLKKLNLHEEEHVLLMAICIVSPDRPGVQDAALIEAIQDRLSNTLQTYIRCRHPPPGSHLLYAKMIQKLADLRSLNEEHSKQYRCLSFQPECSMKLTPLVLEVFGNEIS
#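 Signal is fluorescence polarization, reporting how far test compounds block the interaction of VDR with the SRC2-3 coregulator peptide after a 2 h room-temperature incubation.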
# The depositor's hits bear a star; ? = inconclusive; & = joins results of further samples. % is set by controls: 0 for no effect and ±100 for the full control effect; potency is the fitted concentration of half-maximal effect.
canonical_smiles	VDR inhibitor
CC(C)OCCCNC(=O)CN1C(=O)/C(=C/c2ccccc2)Sc2ccccc21	-5.0%
N#CCCN1CCN(CCC#N)CC1	6.9%
CC(C)(C)c1ccc(OC(=O)c2cccnc2)cc1	7.9%
COc1cc(C)c(NC(=O)C(=S)NCCc2ccccc2)cc1C	?
COc1cc(C)c(C)cc1S(=O)(=O)N1CCCc2ccccc21	-3.2%
Cc1cc(/C=N/NC(N)=O)c(C)n1-c1ccc(F)cc1	-14.5%
COc1ccc(OC)c(CCNC(=O)Cn2nc(C)n3c(cc4sccc43)c2=O)c1	-3.2%
O=[N+]([O-])c1ccccc1Nc1nc(-c2cccnc2)cs1	9.7%
Cc1ccc2oc(=O)n(CCNC(=O)Nc3ccc(C)c(F)c3)c2c1	-0.2%
CS(=O)(=O)N1CCc2cc(C(=O)OCC(=O)c3ccccc3)ccc21	-6.5%
COc1cccc(-c2oc3ccc(C)cc3c(=O)c2O)c1	-0.5%
CN1CCN(S(=O)(=O)Cc2ccc(Cl)cc2)CC1	2.7%
CC(=O)N(C)c1ccc(NC(=O)/C=C/c2ccccc2Cl)cc1	-5.8%
COC(=O)c1ccc(CSc2nnc(CS(=O)Cc3ccc(Br)cc3)n2-c2ccccc2)cc1 (stereo not drawn)	3.6%
Cc1cccc(N2C(=O)C(O)=C(C(=O)c3cccs3)C2c2ccc(C(C)C)cc2)n1 (stereo not drawn)	-26.8%
O=C(NCCc1ccccc1)[C@@H]1CC=C[C@@H]2CCN(Cc3ccccc3)C(=O)[C@@H]21	-3.9%
O=C(Cn1c(-c2cccs2)cc2cc(F)ccc21)N1CCN(c2cccc(Cl)c2)CC1	1.5%
COc1ccc(-c2nnc(SCC(=O)Oc3ccc(C)cc3)o2)cc1	2.4%
O=c1cc(N2CCc3ccccc32)[nH]c(=O)n1-c1ccc(Cl)cc1	-16.1%
CC(C)[C@H](Nc1ccc(S(=O)(=O)N2CCOCC2)cc1[N+](=O)[O-])C(=O)OCC(=O)N(C(C)C)C(C)C	-3.1%
CCC(=O)N1c2ccc(S(=O)(=O)CCC(=O)NCc3ccc(OC)cc3)cc2CC1C (stereo not drawn)	?
Cc1ccc(C)c(NC(=O)Cn2c(=O)n(Cc3ccc4c(c3)OCO4)c(=O)c3ccccc32)c1	-2.9%
Cc1ccccc1CNC(=O)c1cnc2sc(N3CCC(C)CC3)nn2c1=O	15.9%
Cc1nc(SCC(=O)N2CCCCCC2)c2c(=O)n(C)c(=O)n(CC(C)C)c2n1	6.1%
CC1=NN(C(=O)c2ccccc2)C(O)(c2ccc(Br)cc2)C1 (stereo not drawn)	9.7%

# Copied from the list.
# Result of CC(=O)N(C)c1ccc(NC(=O)/C=C/c2ccccc2Cl)cc1 under VDR inhibitor: -5.8%
# Result of O=C(NCCc1ccccc1)[C@@H]1CC=C[C@@H]2CCN(Cc3ccccc3)C(=O)[C@@H]21 under VDR inhibitor: -3.9%
# Result of CC(C)OCCCNC(=O)CN1C(=O)/C(=C/c2ccccc2)Sc2ccccc21 under VDR inhibitor: -5.0%
# Result of Cc1cccc(N2C(=O)C(O)=C(C(=O)c3cccs3)C2c2ccc(C(C)C)cc2)n1 (stereo not drawn) under VDR inhibitor: -26.8%

# New compounds follow:
canonical_smiles	VDR inhibitor
COc1ccc(CNC(=O)CS(=O)Cc2nc(-c3ccc(OC)c(OC)c3)oc2C)cc1 (stereo not drawn)	-11.9%&-8.8%
Cc1cccc(N(CC(=O)NC2CC3CCC2C3)S(=O)(=O)c2ccccc2)c1 (stereo not drawn)	15.5%
COc1cc(O)cc2c1[C@@H]1Oc3c(ccc(O)c3CC=C(C)C)[C@@H]1CO2	-9.6%
c1ccc(-n2nc3ccccc3n2)cc1	-6.1%
O=C1CC(N2CCN(c3ccccc3Cl)CC2)C(=O)N1c1ccccc1 (stereo not drawn)	6.9%
Cc1ccc(S(=O)(=O)CC(=O)c2ccccc2[N+](=O)[O-])cc1	-24.4%
Cc1nc2ccccc2n1-c1nc(-c2ccco2)cc(C(F)(F)F)n1	-1.1%
Cc1ccc(S(=O)(=O)N(C)C)cc1NC(=O)COC(=O)COc1ccc2c(c1)CCC2	-1.7%
O=C(NCc1ccon1)C1CCC(=O)N(CCc2cccc(F)c2)C1 (stereo not drawn)	1.6%
CN(C)CCNc1c(N)c(=O)oc2ccccc12	8.6%
CN(C)c1ccc(N/C=C/C(=O)C(C)(C)C)cc1	15.8µM*
CC(Sc1nnc2ccccn12)C(=O)Nc1ccc(N2CCOCC2)cc1 (stereo not drawn)	?
COc1ccc2[nH]c(=O)c(CN(C(C)=O)c3ccc(C)c(C)c3)cc2c1	-20.9%
N#C/C(=C\c1cc(Br)c(O)c(Br)c1)c1nc2ccccc2c(=O)[nH]1	-11.9%
CCCCN(CC)C(=O)CSc1nc2n[nH]c(C)c2c(=N)n1-c1ccc(CC)cc1	7.1%
COCCNc1nc(=S)[nH]c2cc(OC)c(OC)cc12	-20.0%
COc1cccc2sc(N(CCCN(C)C)C(=O)COc3ccc(Cl)cc3)nc12	-18.7%
CC(C)(C)c1ccc(OCCOc2ccc(C(C)(C)C)cc2NC=O)c(NC=O)c1	0.8%
CCc1ccc2ncc(S(=O)(=O)c3ccc(C)c(C)c3)c(N3CCCC3)c2c1	-2.7%
COc1ccccc1N1CCN(c2cc(C)nc3nc(-c4ccc(Cl)cc4)nn23)CC1	16.9%
CCCCOC(=O)C1=C(C)Nc2ncnn2C1c1cc(OC)c(OC)cc1OC (stereo not drawn)	-12.7%
COc1ccccc1OCCCC(=O)Nc1ccc([N+](=O)[O-])cc1Br	-7.3%
O=C(c1cnn2c(C(F)(F)F)cc(-c3ccco3)nc12)N1CCCc2ccccc21	2.0%
O=C1COc2ccc(C(=O)COC(=O)c3ccc(S(=O)(=O)C(F)F)cc3)cc2N1	-6.2%
Oc1ccc2ccccc2c1CN1CCN(c2ccccc2F)CC1	-22.9%
O=C(NCC1CCCO1)c1ccc2c(c1)C(=O)N(C1CCCCC1)C2=O (stereo not drawn)	17.4%
COc1ccc2nc(NCc3cccnc3)sc2c1	-15.0%
CCC(=O)Nc1ccc2c(c1)nc(CCN1CCN(c3ccccc3)CC1)n2C	6.3%
COc1cc(OC)c(C2=Nc3ccc(Br)cc3C(c3ccccc3)N2CC(=O)NN)cc1OC (stereo not drawn)	-17.1%
O=C(CCNS(=O)(=O)c1cccs1)NCc1ccccc1	9.2%
O=C(CN(C(=O)CNC(=O)c1cccs1)c1ccc(F)cc1)NC1CCCC1	5.8%
CCc1ccc(/C=C2/SC(=S)N(CCC(=O)NCCCN3CCOCC3)C2=O)cc1	-4.1%
O=c1c(O)c(-c2cc(O)c(O)c(O)c2)oc2cc(O)ccc12	?
O=c1cc2c(nn1Cc1ccc(Cl)cc1)-c1ccccc1CC2	-1.5%
COc1cc(OC)c(NC(=O)CCc2c(C)nc3c4c(C)cc(C)nc4nn3c2C)cc1Cl	5.1%
Cc1ccc(N2C(=O)CN(Cc3ccccc3)C2=S)cc1C	-23.0%
C=CC(COCc1ccccc1)N(C(=O)OC(C)(C)C)S(=O)(=O)c1ccccc1Br (stereo not drawn)	-16.4%&-6.2%
C/C=C\C(=O)Nc1cccc(C2=NOC3(C2)C[C@@H](C(N)=O)N(C(=O)c2ccccc2)C3)c1 (stereo partly drawn)	-1.9%
O=C(Nc1ccccc1)C1=C[C@H](c2ccc(C(F)(F)F)cc2)C[C@H](OCCCCO)O1	-16.0%
CCOc1cccc(-c2nnc(SCC(=O)Nc3cccc(OC)c3)n2N)c1	8.1%
CCN(CC)S(=O)(=O)c1cccc(NC(=O)CC2CCCC2)c1	-8.9%
O=Cc1c(NCc2ccc(F)cc2)c2ccccc2[nH]c1=O	-0.2%
CC(=O)Nc1ccc(S(=O)(=O)Nc2ccccc2C(=O)N2CCCCC2)cc1	12.9%
Cc1ccccc1C(=O)NC(=S)NCCc1ccccc1	-8.2%
Cc1ccc2c(c1)N(CCC(=O)NCc1cccs1)C(=O)C(C)O2 (stereo not drawn)	2.0%
Cc1[nH]c2ccc(F)cc2c1CCN(Cc1ccncc1)C(=S)Nc1cccc(F)c1	3.1%
COc1ccc2nc(NC(=O)c3ccoc3C)sc2c1	-9.1%
Cc1ccc(CNc2ncnc3c2c(-c2ccccc2)cn3-c2cccc(Cl)c2)cc1	24.2%
Cc1cc(OC(=O)c2ccc(S(=O)(=O)N3CCCCC3)cc2)c([N+](=O)[O-])c(=O)[nH]1	6.0%
CN(C(=O)CSc1ccc2c(c1)OCCO2)c1ccccc1	-15.5%

# More records:
canonical_smiles	VDR inhibitor
COc1cc2c(cc1OC)C(=O)CCS2	4.9%
O=C(Nc1cccc(Cl)c1)C1=CC=CN2CCS(=O)(=O)N=C12	18.6%
Oc1ccc(/C=N/N=C(c2ccccc2)c2ccccc2)c(O)c1O	-26.7%
CN(C)S(=O)(=O)c1cccc(NC(=O)c2ccc(S(=O)(=O)N3CCCCC3)cc2)c1	5.4%
CCOC(=O)Nc1cccc(OCC(=O)Nc2ccc3c(c2)CCC3)c1	-13.0%
COc1ccc(Br)c(C(=O)N2CCN(S(=O)(=O)c3cccs3)CC2)c1	-18.6%
CC(C)c1ccc(NC(=O)C(c2ccc3c(c2)OCO3)N2CCCCC2)cc1 (stereo not drawn)	-1.1%
Cc1c(-c2ccccc2)[n+](=O)c2c(n1[O-])CCC2	-12.6%
CCCCC(=O)Nc1nn(CCC)c2nc3ccccc3cc12	7.2%
Cc1cc(C)c2nc(N(CCN(C)C)C(=O)/C=C/c3cccs3)sc2c1	11.8%
CCCN(CCC)CCN1C(=O)C2C(C(=O)Nc3ccc(C)cc3)C3C=CC2(O3)C1C(=O)NC1CCCCC1 (stereo not drawn)	2.3%
Cc1ccc(NC2=NCCCCC2)cc1C	-3.4%
Cc1ccc(NC(=O)C(C)OC(=O)Cn2cnc3ccccc3c2=O)cc1 (stereo not drawn)	2.0%
CCOC(=O)C1CCN(S(=O)(=O)c2ccc3[nH]c(=O)oc3c2)CC1	2.9%
O=C(Nc1ccc2c(c1)OCCO2)C1CCN(S(=O)(=O)c2ccc(Br)s2)CC1	9.4%
C=CCN1CCN(C(CCC)c2nnnn2Cc2ccco2)CC1 (stereo not drawn)	-14.6%
Cc1nonc1C(=O)N1CCCC(N2CCN(c3ccc(F)cc3)CC2)C1 (stereo not drawn)	-13.9%
CCCCOc1ncnc2c1[nH]c1ccccc12	11.6%
Cc1cc(C(=O)NCCCN2CCN(c3cc(Cl)ccc3C)CC2)n(-c2ccccc2)n1	2.5%
Cc1ccc(NC(=O)CCNC(=O)c2ccco2)cc1	14.5%
CCN1CCCC1CNC(=O)C(=O)NCc1ccccc1 (stereo not drawn)	3.8%
CC(C)Cc1ccc(CC(=O)O)cc1	-4.8%
c1cc[n+](CCC[n+]2ccccc2)cc1	14.2%
CN(C(=O)COc1cccc(Br)c1)C1CCS(=O)(=O)C1 (stereo not drawn)	7.2%
COc1ccccc1N(CC(=O)NC(C)(C)C)C(=O)CCC(=O)Nc1nccs1	-2.1%
CCOc1ccccc1NC(=O)CSc1nnc(-c2ccccc2Cl)n1Cc1ccco1	-1.7%
Cc1n[nH]c(=O)c2c1nnn2Cc1ccccc1Cl	-16.2%
CCCOc1cccc(-c2nn(-c3ccccc3)cc2/C=C(\C#N)C(=O)NCCCn2ccnc2)c1	-3.1%
COc1ccccc1CNC(=O)COc1ccc([N+](=O)[O-])cc1	-12.9%
COc1ccc(Cn2c(-c3ccc(Br)cc3)c[n+]3ccccc23)cc1	7.2%
CSc1nnc2c3ccccc3c3ccccc3c2n1	?
CCc1ccccc1N1CN(Cc2ccco2)CNC1=S	8.4%
COc1cccc(NC2SC(=O)N(c3ccccc3)C2=O)c1 (stereo not drawn)	-16.1%
c1ccc2c(c1)CCN(Cc1nnnn1Cc1ccc3c(c1)OCO3)C2	3.3%
Cc1cccc(C)c1OCc1nnc2c3cnn(C)c3ncn12	7.1%
COc1ccc(CC(=O)N(C)Cc2cccc(F)c2)cc1S(=O)(=O)N1CCOCC1	20.3%
O=C(CSc1n[nH]c(-c2ccc(F)cc2)n1)NCCc1ccccc1	9.0%
COC(=O)c1ccccc1NC(=O)Cn1c(=O)n(-c2cccc(C(F)(F)F)c2)c(=O)c2c(C)c(C)sc21	-13.8%
Cc1cccc(C)c1OCC(=O)NNC(=O)CNC(=O)c1ccc(OC(F)F)cc1	-12.2%
Cc1nn(C)cc1NC(=O)CCSc1nc(-c2ccco2)cc(C(F)(F)F)n1	-14.4%
CCCCN(CC)C(=O)Nc1ccc2c(c1)N(C)C(=O)c1ccccc1S2	0.2%
CS(=O)(=O)Nc1cc2c3c(c1)CCC(=O)N3CCC2	3.6%
COc1ccc(-c2nn(-c3ccccc3)cc2C(=O)N2CCN(S(=O)(=O)c3ccccc3C#N)CC2)cc1	-13.3%
Cc1cc(NC(=O)CCC(=O)N(c2ccccc2)C(C(=O)NC2CCCC2)c2ccncc2)no1 (stereo not drawn)	-5.8%
O=C(CNC(=O)c1ccc(Br)o1)NNC(=O)c1ccc(Cl)cc1	?
CCOC(=O)C(C)Oc1ccc2c(-c3cccc([N+](=O)[O-])c3)cc(=O)oc2c1 (stereo not drawn)	-6.5%
Cn1c(SCC(=O)OC2CCCCC2)nnc1-c1ccc2c(c1)OCO2	12.9%
CCOC(=O)c1c(N2C(=O)Nc3cc(Cl)c(Cl)cc3N2O)sc2c1CCCCC2	?
Cc1cc(C)n(-c2ccc(C(=O)Nc3ccc(S(=O)(=O)N(C)C)cc3)cc2)n1	9.2%
O=C(NCc1ccccc1)c1cccc(NC(=O)C2CC2)c1	-7.7%

# Reformatted: entries from further up
Structure: Cc1ccc(NC2=NCCCCC2)cc1C
  VDR inhibitor = -3.4%

Structure: Cc1ccc(NC(=O)C(C)OC(=O)Cn2cnc3ccccc3c2=O)cc1 (stereo not drawn)
  VDR inhibitor = 2.0%

# Source: PubChem (National Center for Advancing Translational Sciences (NCATS))

# Only part of the results is shown; count on the stated rates, not on these rows.
